# JMJD2E inh – qHTS Assay for Inhibitors of Human Jumonji Domain Containing 2E (JMJD2E) | Lysine-specific demethylase 4E (Homo sapiens), B2RXH2 | JMJD2E catalytic domain, FDH-coupled NADH fluorescence (FDH is formaldehyde dehydrogenase) | Potency, µM (titrated, usually from 57.1 µM), for the others: at the highest dose activity change, negative = inhibition, usual class: inhibitors | 230,000 tested, 1.6% active; active = well fitted inhibition curve with a large enough effect, not every such curve was filed as active; inconclusive = small, poorly fitted or top-dose-only effect, or another doubt; inactive = no such curve, though single readings can be large or run the other way;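 note: 0% = wells with enzyme and -100% = buffer wells without enzyme; nearly all actives have a fitted effect of over 50% in size; many of its hits are not listed in these tables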
# Target sequence (B2RXH2 1-337 limits assumed): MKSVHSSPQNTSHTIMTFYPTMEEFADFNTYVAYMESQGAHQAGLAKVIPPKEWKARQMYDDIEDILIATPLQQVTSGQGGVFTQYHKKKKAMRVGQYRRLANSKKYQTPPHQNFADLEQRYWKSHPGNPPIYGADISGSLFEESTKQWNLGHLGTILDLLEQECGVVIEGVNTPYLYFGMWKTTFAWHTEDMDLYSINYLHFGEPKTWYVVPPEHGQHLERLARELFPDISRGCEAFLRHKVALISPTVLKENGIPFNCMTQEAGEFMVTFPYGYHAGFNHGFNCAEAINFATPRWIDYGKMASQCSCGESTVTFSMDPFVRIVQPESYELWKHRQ
# Lamin A splicing – qHTS Assay for Modulators of Lamin A Splicing | HeLa LMNA splicing GFP/RFP minigene ratio, 48 h | Potency, µM (series often up to 46.1 µM), without a hit: at the top dose ratio change, negative = inhibition, actives largely listed as inhibitors | 200,000 tested, 0.01% active | AID 1487, 2009; active = well fitted inhibition curve with a large enough effect in the signal ratio, with a control signal flat, not every such curve was filed as active; inconclusive = small, poorly fitted or top-dose-only effect, or effect the other way, or a change in a side signal; the % refers to the signal ratio; note: % is set by controls: 0 for no effect and ±100 for the full control effect
#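 S3 HeLa cells stably expressing lamin A-EGFP splicing minigene plus DsRed2, 600 cells/well, 48 h compound exposure at 37C. Laser-scanning cytometry; analysed as GFP (500-530 nm)/RFP (575-640 nm) total intensity ratio; 0.5% DMSO vehicle.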
# RGS12 GoLoco inh – qHTS Assay for Inhibitors of RGS12 GoLoco Motif Activity (Red Fluorophore) | Potency, µM (titrated, usually from 61.6 µM), without a hit: top-dose activity, negative = inhibition, hits mostly inhibitors | 230,000 tested, 0.44% active | Gai1:RGS12 GoLoco peptide FP, rhodamine, 10 min; active = well fitted inhibition curve with a large enough effect, not every such curve was filed as active; inactive = no such curve, though single readings can be large or run the other way; note: % is set by controls: 0 for no effect and ±100 for the full control effect; nearly all actives have a fitted effect of over 30% in size; many of its hits are not listed in these tables
# TRb-SRC2 inh – qHTS for Inhibitors of the Interaction of Thyroid Hormone Receptor and Steroid Receptor Coregulator 2 | TRbeta-SRC2 peptide binding, fluorescence polarization; receptor liganded with 1 µM T3 | Potency, µM (series often up to 106 µM), without a hit: top-dose activity change, negative = inhibition, hits mostly inhibitors | Thyroid hormone receptor beta (Homo sapiens), P10828 | 280,000 tested, 0.065% active | AID 1469, 2008;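 note: plate controls were bound peptide for no effect and peptide without receptor for full effect; nearly all actives have a fitted effect of over 50% in size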
# Target sequence (P10828 whole entry, looked up): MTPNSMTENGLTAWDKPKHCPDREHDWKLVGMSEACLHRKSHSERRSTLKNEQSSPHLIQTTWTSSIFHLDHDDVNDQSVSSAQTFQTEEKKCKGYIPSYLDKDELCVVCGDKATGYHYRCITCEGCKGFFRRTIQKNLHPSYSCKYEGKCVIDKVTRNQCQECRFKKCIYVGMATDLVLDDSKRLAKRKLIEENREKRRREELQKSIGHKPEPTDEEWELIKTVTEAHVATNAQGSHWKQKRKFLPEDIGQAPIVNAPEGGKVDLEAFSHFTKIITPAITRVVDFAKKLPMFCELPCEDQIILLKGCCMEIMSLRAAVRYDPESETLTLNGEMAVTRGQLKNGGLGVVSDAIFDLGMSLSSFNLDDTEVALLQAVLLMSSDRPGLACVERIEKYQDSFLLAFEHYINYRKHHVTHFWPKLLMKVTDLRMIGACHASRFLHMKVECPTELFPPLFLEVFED
#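 Fluorescence polarization of 20 nM Texas Red SRC2 peptide (20-aa NR interaction domain) bound to 0.6 uM human TRb ligand-binding domain, with 1 uM T3, after 5 hr at ambient temperature; inhibition seen as decreased polarization.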
# RECQ1 inh – qHTS Assay for Inhibitors of RecQ-Like Dna Helicase 1 (RECQ1). RECQ1 DNA unwinding, red fluorescence kinetic read. 240,000 tested, 0.54% active. AID 2549, 2010. ATP-dependent DNA helicase Q1 (Homo sapiens), P46063. Potency, µM (highest dose often 57.3 µM), inactives show at the top dose activity, negative = inhibition, most hits filed as inhibitors;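 note: plate controls were vehicle for no effect and no enzyme for full effect; nearly all actives have a fitted effect of over 30% in size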
#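 50 nM RECQ1T1 preincubated 15 min with compound in Tris pH 8.0 buffer with MgCl2, DTT, Tween-20 and 2.5 ug/ml poly(dI-dC); started with 200 nM TAMRA/BHQ-2 forked duplex and 2 mM ATP. Unwinding read as fluorescence (525/598 nm), two reads 2 h apart.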
# TR SRC2 fluor cs – Total Fluorescence Counterscreen for Inhibitors of the Interaction of Thyroid Hormone Receptor and Steroid Receptor Coregulator 2 | Potency, µM (highest dose often 106 µM), inactives show at the top dose fluorescence change, negative = quenching | AID 1479, 2009 | 280,000 tested, 0.29% active | TRb/SRC2 Texas Red total fluorescence interference; active = well fitted curve in either direction with a large enough effect; inconclusive = small, poorly fitted or top-dose-only effect; note: % is set by controls: 0 for no effect and ±100 for the full control effect
#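 Human TRb ligand-binding domain at 0.6 uM with 20 nM Texas Red SRC2 peptide in Tris buffer containing 1 uM T3 and 5% DMSO, incubated with compound 5 h at ambient temperature. Total fluorescence (555/632 nm) calculated as parallel + 2 × perpendicular.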
# SMN2 splice enh – qHTS Assay for Enhancers of SMN2 Splice Variant Expression. Potency, µM (top dose mostly 46.1 µM), without a hit: at the highest dose activity change, positive = activation, usual class: activators. HEK293 SMN2-luciferase splicing reporter, luminescence, 30-36 h. 210,000 tested, 2.8% active; note: % of control where 0% means no effect; nearly all actives have a fitted effect of over 55% in size
#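 HEK293 cells carry an SMN2 minigene-luciferase reporter in which exon 7 inclusion puts luciferase in frame. Cells were seeded at 2000 cells/well, attached for 10-12 hours, then exposed to compounds for 30-36 hours at 37C before ONE-Glo luminescence.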
# Starred values were filed as active, the others as inactive; i = inactive; ? = inconclusive; . = not tested or not shown; & = joins results of further samples; [ ] = remark or other dose. Unless noted, calls come from the whole dose curve; as a rule, active = well fitted curve in the direction sought with a large enough effect; inconclusive = small, poorly fitted or top-dose-only effect, or another doubt; inactive = no such curve, though single readings can be large; an effect the other way counts as inactive or inconclusive. Potency is the fitted concentration of half-maximal effect.
SMILES,JMJD2E inh,Lamin A splicing,RGS12 GoLoco inh,TRb-SRC2 inh,RECQ1 inh,TR SRC2 fluor cs,SMN2 splice enh
COc1ccc(-c2nnc(SCC(=O)Nc3ccc(Cl)cc3)n2C)cc1,8%,-6%,11%,7%,2%,-3%,-10%
Clc1ccc(SCCOCCN2CCCCC2)cc1,7%,-3%,-7%,-10%[53 µM],8%,-1%[53 µM],?
COc1cccc(N2CCN(CC(=O)Nc3nnc(-c4ccccc4)s3)CC2)c1,-15%,?,13%,4%,-25%,0%,-78%[inhibitor]
CCO[C@@H]1OC(C(=O)NCc2ccccc2)=C[C@H](C2CC2)[C@H]1CCCO,-2%,.,-6%,-4%,-13%,0%,.
O=C(CNC(=O)c1cccs1)NCC(=O)OCc1ccc(Cl)cc1,2%,3%[0.0737 µM],2%,-16%,-3%,-5%,-11%
COc1ccccc1N=NC1=C(O)CC(C)(C)CC1=O,-9%,-4%,2%,4%,0%,-2%,9%
O=C(O)c1ccc(OCCOc2ccccc2)cc1,7%,-3%[46 µM],1%,6%,i,3%,.
Cc1cccc(C(C)C)c1NC(=O)COC(=O)c1cccc(S(=O)(=O)N2CCc3ccccc3C2)c1,5%,9%,-4%,1%,1%,-1%,11%
O=C(NCCc1ccc(Cl)cc1)c1ncn[nH]1,0%,17%,-7%,7%,-10%,2%,-9%
CC(N)(C(=O)O)c1ccc(C(=O)O)cc1 (stereo not given),3%,?,7%&-7%,5%&8%,-1%,-7%&-3%,-7%&-10%
O=C(CCn1cnnn1)Nc1ccccc1,0%,-7%[46 µM],-1%,0%&-11%,i,0%&-1%,.
Cc1ccc(C(=O)Nc2ccc(F)cc2)o1,-3%,7%,0%,0%,8%,-1%,9%
CC(C)(C)c1ccc(NC(=O)COc2ccc(-n3ccnc3)cc2)cc1,-11%,?,16%,-4%,-3%,-3%,.
N#CC1=C(N)Oc2c(ccc3cccnc23)C1c1ccncc1 (stereo not given),?,.,-7%,-3%,-1%,-1%,.
CN(C)S(=O)(=O)c1ccc(C(=O)OCCn2cnc3c2c(=O)n(C)c(=O)n3C)cc1,2%,.,2%,-1%,-2%,-3%,-21%
CN(C)S(=O)(=O)c1ccc(NC(=O)COc2ncnc3c2cnn3-c2ccccc2)cc1,-7%,-14%,.,4%,-11%,-1%,.
CN(CCO)c1ncnc2nc[nH]c12,3%,-8%,3%,0%,1%,0%,9%
CCN(CCCNC(=O)Cn1cc2c(n1)CCCC2)c1cccc(C)c1,-5%,-12%,0%,-10%,i,3%,-18%
CC(Cc1ccsc1)NC(=O)CCc1nnc(CCc2ccccc2)o1 (stereo not given),-5%,.,6%,-5%,i,0%,.
CCOC(=O)c1sc(NC(=O)C(CC)OC(=O)C(CC(C)C)NC(=O)c2ccccc2)nc1C (stereo not given),0%,14%,-8%,1%,i,1%,5%
CN(CCOC(=O)c1ccc2c(c1)OCCO2)C(C)(C)C,?,-2%,-8%,13%,0%,-4%,2%
CN1CCN(C(=O)C(Cc2ccccc2)NS(=O)(=O)c2ccc3c(c2)CCC(=O)N3)CC1 (stereo not given),4%,9%,0%,-7%,-4%,-3%,-1%
C[C@H](NC(=O)c1nc[nH]c1C(=O)NCCCCCNC(=O)OC(C)(C)C)C(=O)OCc1ccccc1,-1%,.,-1%,5%,-6%,0%,.
COc1cccc(-c2nc(CS(=O)(=O)CC(=O)N3CCc4ccccc43)c(C)o2)c1,1%,-9%,-3%,6%,-8%,1%,-4%
Cc1cc(C)c2nc(NC(=O)c3cccc(S(=O)(=O)N4CCc5ccccc54)c3)sc2c1,?,-1%,4%,5%,2%,-4%,-19%
CCc1nnc(NC(=O)CSc2nc3cc4c(cc3cc2C)OCCO4)s1,-2%,-2%,5%,-3%,-13%,-4%,-24%
CCCc1cc(=O)[nH]c(SCC(=O)N(CC)Cc2ccccc2)n1,3%,12%,4%,-9%,-7%,0%,4%
O=S(=O)(NCC(c1cccnc1)N1CCN(c2ccccc2)CC1)c1cc(F)ccc1F (stereo not given),-12%,-7%,7%,3%,17%,1%,-20%
CCc1ccc(N2C(=O)C3C4CCC(C4=C(C)C)C3C2=O)cc1 (stereo not given),2%,10%,-7%,-3%,0%,0%,-14%
CC(=O)c1c(C)[nH]c(C(=O)OCC(=O)NCCc2ccc(Cl)cc2)c1C,-9%,?,2%,6%,-3%,-1%,-22%
CC1=C(C)SC(=C(C#N)c2nnc(N3CCOCC3)n2-c2ccccc2)S1,3%,9%,12%,-11%,-11%,2%,-17%
COc1ccccc1OCCCC(=O)Nc1nccs1,-4%,.,-3%,1%,-5%,-5%,.
CC/C(=N\NC(=O)c1ccccc1Cl)c1ccc(Br)s1,2%,1%,-3%,-4%,2%,-3%,-22%
CCCCN(C(=O)Cc1cccc(F)c1)c1c(N)n(CCC)c(=O)[nH]c1=O,6%,-15%[46 µM],-2%,-3%,-16%,-2%,7%
NNC(=O)CNC(=O)c1ccc(F)cc1,-1%,0%,6%,1%,-4%,9%,10%
CCCOc1ccc(-c2nnn(CC(=O)OCC)n2)cc1,0%,6%,3%,-4%,-6%,4%,-15%
O=C(COC(=O)CCC(=O)c1cccs1)Nc1ccc(S(=O)(=O)N2CCOCC2)cc1,1%,-1%,-3%,-20%,-8%,1%,-2%
Cc1ccc(S(=O)(=O)N2CCCOC2CNC(=O)C(=O)NCCC2=CCCCC2)cc1 (stereo not given),-6%,?,2%,-3%,-3%,-1%,-62%[inhibitor]
O=C(c1ccc(CSc2ccccc2)cc1)N1CCN(c2ccccc2)CC1,-8%,?,-1%,2%,-9%,-3%,7%
CCC(=O)N1CCN(c2ccc(NC(=O)COc3ccccc3[N+](=O)[O-])cc2)CC1,11%,.,-7%,5%,i,-3%,-57%[inhibitor]

# A second format for four compounds above:
CCc1nnc(NC(=O)CSc2nc3cc4c(cc3cc2C)OCCO4)s1
- JMJD2E inh = -2%
- Lamin A splicing = -2%
- RGS12 GoLoco inh = 5%
- TRb-SRC2 inh = -3%
- RECQ1 inh = -13%
- TR SRC2 fluor cs = -4%
- SMN2 splice enh = -24%

CN(CCOC(=O)c1ccc2c(c1)OCCO2)C(C)(C)C
- JMJD2E inh = ?
- Lamin A splicing = -2%
- RGS12 GoLoco inh = -8%
- TRb-SRC2 inh = 13%
- RECQ1 inh = 0%
- TR SRC2 fluor cs = -4%
- SMN2 splice enh = 2%

CC1=C(C)SC(=C(C#N)c2nnc(N3CCOCC3)n2-c2ccccc2)S1
- JMJD2E inh = 3%
- Lamin A splicing = 9%
- RGS12 GoLoco inh = 12%
- TRb-SRC2 inh = -11%
- RECQ1 inh = -11%
- TR SRC2 fluor cs = 2%
- SMN2 splice enh = -17%

C[C@H](NC(=O)c1nc[nH]c1C(=O)NCCCCCNC(=O)OC(C)(C)C)C(=O)OCc1ccccc1
- JMJD2E inh = -1%
- Lamin A splicing = .
- RGS12 GoLoco inh = -1%
- TRb-SRC2 inh = 5%
- RECQ1 inh = -6%
- TR SRC2 fluor cs = 0%
- SMN2 splice enh = .

# (next part)
SMILES,JMJD2E inh,Lamin A splicing,RGS12 GoLoco inh,TRb-SRC2 inh,RECQ1 inh,TR SRC2 fluor cs,SMN2 splice enh
c1csc(CNc2nc3ccccc3n2CCN2CCOCC2)c1,3%,-10%,5%,3%,i,-2%,6%
Cn1c2ccccc2c2nnc(SCN3C(=O)c4ccccc4C3=O)nc21,4%,-3%,5%,4%,-1%,0%,-22%
Cc1ccc(S(=O)(=O)N(CCCO)Cc2cc3c(C)ccc(C)c3[nH]c2=O)cc1,?,-2%,-8%,-10%,-9%,-3%,-12%
CCOC(=O)c1sc(C)c2c(=O)n(CCCN3CCOCC3)cnc12,-28%,-7%,-4%,-1%,i,-3%,-1%
CCOc1ccc(OCc2ccc(C(=O)N3N=C(C(F)F)CC3(O)C(F)F)o2)cc1 (stereo not given),7%,?,10%,-6%,-3%,3%,?
O=C(O)CC(Cc1ccc(Cl)cc1)C(=O)Nc1ccc([N+](=O)[O-])cc1 (stereo not given),-8%,5%[9.22 µM],3%,-5%,-1%,-2%,-25%
CCOC(=O)N1CCC(NC(=O)C2CCN(S(=O)(=O)c3ccc4c(c3)oc(=O)n4C)CC2)CC1,0%,.,-3%,-2%,-5%,-4%,-4%
CCC(NS(=O)(=O)c1cn(C)nc1C)c1ccccc1 (stereo not given),0%,-7%[46 µM],15%,-3%,i,-4%,-6%
c1ccc(Nc2cc(-c3ccoc3)ncn2)cc1,.,?,106%[activator],.,-4%,.,.
CCOC(=O)NC(=O)/C(C#N)=N/Nc1c(F)cccc1F,-2%,-6%,9%,-6%,-11%,-5%,12%
CC(OCc1ccccc1)C(NC(=O)OC(C)(C)C)C(=O)NCC1CCCO1 (stereo not given),5%,1%,-6%,-7%,5%,-3%,.
CC1CCCCN1CCNC(=O)CC1Oc2ccccc2NC1=O (stereo not given),-3%,6%,6%,-6%,-11%,-1%,?
COc1ccccc1-c1nnc(SCC(=O)NCc2c(C)c(Cl)cc(C(C)C)c2O)o1,3%,?,8%,2%,-22%,-2%,-24%
CCOC(=O)/C=C/S(=O)(=O)c1ccc(NC(C)=O)cc1,3%,?,-8%,-3%,-9%,-5%,-50%[inhibitor]
Cc1sc(NC(=O)c2ccco2)c(CN2CCC(C)CC2)c1C,-12%,11%,-2%,-17%,-16%,-2%,-13%
CC(C)n1nnnc1SCC(=O)Nc1ccccc1N1CCOCC1,3%,-10%,7%,-7%,-5%,0%,3%
COc1ccc(C2CC(c3ccc(Cl)cc3Cl)n3nc(N)nc3N2)cc1 (stereo not given),-4%,-4%,-8%,6%,i,-10%,9%
CCCC(=O)Nn1cnc2c(c1=O)C1(CCCCC1)Cc1ccccc1-2,-9%,-11%,11%,-2%,-21%,-5%,-2%

# Source: PubChem BioAssay (National Center for Advancing Translational Sciences (NCATS))

# Not all compounds are listed; the hit share may differ from the screen's.
